CapD inh: Bacillus anthracis CapD inhibitors, primary screen, biochemical, fluorescence intensity. CapD gamma-glutamyltranspeptidase (Bacillus anthracis Ames Ancestor). purified CapD enzyme, fluorescence intensity read-out; hits give low values; some hits fall short of the stated cut. z-score (concentration not given with the values). 140,000 compounds, 0.23% hits. AID 492967, 2010;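 active means z-score under -4 in either of two replicates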;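 further: stock transfer was 100 nL into about 40 µL; score is relative to mean and spread of the plate; one replicate is shown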
AID504770: growth inhibition of E. coli YBA685, primary screen, V. cholerae RctB inhibitors; z-score (test concentration not listed); E. coli YBA685 rctB-dependent plasmid, OD600 growth, 3 h; hits give low values; 130,000 compounds, 0.27% hits;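 active means z-score under -2 on both plates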;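 further: wells of about 30 µL received 100 nL stock; score is relative to mean and SD of the test wells; the first replicate is given; strong numbers were not always called active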
* hit, by the source's call; i = inactive; x = not tested or not shown.

SMILES	CapD inh	AID504770
COc1cccc(N=Nc2ccc3cccnc3c2O)c1	x	-0.4
COC(=O)[C@@H]1[C@H]2C[C@H]3c4[nH]c5ccccc5c4CCN3C[C@@H]2CC[C@@H]1O	0.43	x
N#Cc1ccc(N2CCNCC2)nc1	3.8	-0.35
Cc1cc(C)nc(NCCO)n1	-1	0.35
COC(=O)C1=C(N)OC2=C(C(=O)CC(C)(C)C2)C1c1ccc(Cl)cc1Cl (centres undefined)	0.04	x
CCOc1cccc(C(=O)N2CCOCC2)c1	0.18	-0.85
O=C(CSc1nc2ccccc2n1-c1ccccc1)N1CCOCC1	-0.35	-0.5
OCCN1CCN(CC/C=C2/c3ccccc3Sc3ccc(C(F)(F)F)cc32)CC1	-0.15	x
O=C(NN1CCOCC1)c1cccc2c1C(=O)N(Cc1cccnc1)C2	-0.48	-0.7
Cc1[nH]c(=O)c(C#N)c(C)c1CCC(=O)N1CCCSC1=Nc1ccccc1C(C)C	x	-1
Cc1ccc(-c2nn(-c3ccccc3)cc2/C=C\C(N)=O)cc1	5	-0.45
CCN(CC)Cc1c(O)ccc2cc(-c3nc4ccccc4s3)c(=O)oc12	0.1	-0.4
O=C(Cc1ccccc1)OCc1ccc(Cl)cc1	-0.11	-0.3
COc1ccc(N(CC(=O)NCCSc2ccc(Cl)cc2)S(=O)(=O)c2ccc(C)cc2)cc1	-0.38	x
N#CC1(C#N)C(C(=O)C23CC4CC(CC(C4)C2)C3)C12CCOCC2 (centres undefined)	x	-0.7
CCOC(=O)c1[nH]c(Cc2[nH]c(C(=O)OCC)c(C)c2C)c(C)c1C	-0.42	-0.75
Cc1ccc(-c2cc(C(F)F)nc(N(C)Cc3ccccc3)n2)cc1	16	-0.1
O=C(Nc1nccs1)C1Cc2ccccc2CN1S(=O)(=O)c1ccc(F)cc1 (centres undefined)	0.25	-0.2
CCCCC(CC)CN1CC(O)=C(c2nc3ccccc3s2)C1=N (centres undefined)	20	1.4
O=c1c(NCCc2ccccc2)nccn1-c1ccccc1	4.8	1.1
Cn1nccc1NC(=S)Nc1ccc(Br)cc1OC(F)(F)F	-0.13	x
NC(=O)c1c(NC(=O)CN2CCCC2)sc2c1CCCC2	x	-0.95
Cc1ccc(C2C3=C(Nc4ncnn42)c2ccccc2OC3c2cccc([N+](=O)[O-])c2)cc1 (centres undefined)	-0.26	x
CC1=CC(C)C(C2OCCC(C)O2)C(C)C1 (centres undefined)	x	-0.4
CC(=O)Nc1ccc(Nc2nc(Cl)nc(Nc3ccc(NC(C)=O)cc3)n2)cc1	-0.6	x
CC(NC(=S)NC1CCCCC1)c1ccncc1 (centres undefined)	-0.63	-0.35
COc1ccc(/C=C/C(=O)NCCCN2CCCC2)cc1	-0.31	0.8
CN1C(=O)c2ccc(NC(=O)/C=C/c3ccc(Br)o3)cc2C1=O	x	-0.05
CCCC(=O)Nc1ccc(-c2cn3cccnc3n2)cc1	x	0.5
Cc1cc(=O)oc(C)c1C(=O)NCCCN1C(C)CCCC1C (centres undefined)	-3.1	-0.55
COc1ccc(CCNc2ccc(C(=O)N3CCCCC3)cc2S(=O)(=O)Nc2cccc(C(F)(F)F)c2)cc1OC	3.1	x
CC(=O)NN1C(=O)c2ccccc2NC1c1ccccc1 (centres undefined)	4.3	0.3
COc1cc(C=C2C(=O)N(C)C(=O)N(C)C2=O)cc(Cl)c1OCCOc1ccccc1	-0.39	x
Cn1c(=O)c2c(nc3n(Cc4ccco4)c(-c4ccccc4)cn23)n(C)c1=O	-0.3	x
COCC(=O)N1CCN(c2ccc(F)cc2)CC1	0.48	-0.6
Cc1csc2sc(-c3ccnc(SCc4ccccc4)n3)c(C)c12	0.52	0.15
CCCCS(=O)(=O)Nc1ccccc1OCC	-0.03	-0.45
O=C(COC(=O)CC12CC3CC(CC(C3)C1)C2)NCc1ccc(F)cc1	-0.17	-0.95
CN(C(=O)CSc1nnc2ccccn12)c1ccccc1	x	-0.5
Cc1ccc(C2(CC(=O)OCCCC(C#N)c3ccccc3)CCOC(C)(C)C2)cc1 (centres undefined)	-0.41	x
CCC(=O)c1ccccc1OCC(=O)Nc1c(C)cccc1C	0.04	-0.85
NS(=O)(=O)c1ccc(CCNC(=O)CSc2nc3ccccc3c(=O)n2CCC(=O)N2CCCCC2)cc1	0.64	x
CC1CCc2c(sc(NC(=O)C3CC(=O)N(Cc4ccco4)C3)c2C(N)=O)C1 (centres undefined)	x	0
CCOC(=O)c1c(NC(=O)C(C)Sc2nnc(CNC(=O)c3cccs3)n2-c2cccc(Cl)c2)sc2c1CCC2 (centres undefined)	-0.35	x
CC(C)(C)c1ccc(NC(=O)N2CCN(CCN3CCOCC3)CC2)cc1	0.02	-1.1
CCOC(=O)c1ccc(NC)c(N)c1	22	-0.9
CCOC(=O)N1CCN(C(=O)Cn2ncc3ccccc32)CC1	0.15	0.5
COc1cc2c(cc1OC)CN(C(=O)C1CCCN1S(=O)(=O)c1ccc(F)cc1)CC2 (centres undefined)	x	-0.55
CC(NC(=O)CSCc1cccs1)c1ccccc1 (centres undefined)	-0.66	-0.9
Cc1ccc(S(=O)(=O)Oc2ccccc2C=C2C(=O)N(C)C(=O)N(C)C2=O)cc1	-0.11	x

Remaining list, next part.
SMILES	CapD inh	AID504770
N#CC(C#N)=CNc1cc(C(F)(F)F)ccc1N1CCCC1	1.9	x
Cc1nc(-c2cc(-c3nc(-c4ccc(Cl)cc4)no3)no2)cs1	-0.68	-0.5
CCOC(=O)C1=C(c2cccs2)OC(N)=C(C#N)C1c1cccnc1 (centres undefined)	-0.2	-1.1
CC(=O)Nc1ccc(C(=O)CSc2nc3ccccc3n2CC(=O)N2CCCC2)cc1	x	-0.5
O=C1c2cc(S(=O)(=O)N3CCOCC3)ccc2-c2ccc(S(=O)(=O)N3CCOCC3)cc21	0.12	x
CC(=O)Nc1ccc(C(=O)COc2ncnc3sccc23)cc1	x	-0.5
CN(Cc1ccccc1NCC(=O)Nc1ccc2c(c1)OCCO2)C1CCCCC1	x	0.05
CCOC(=O)Cc1nc(-c2ccc(Cl)cc2)n[nH]1	0.1	-0.15
O=C(COc1ccccc1Cl)N/N=C/c1cccc([N+](=O)[O-])c1	-0.95	x
C=CCn1c(=N)n(CCO)c2ccccc21	-0.53	-0.9
CCOC(=O)c1cc2c(c(CSc3nc4cc(C(=O)OC)ccc4c(=O)n3CCN3CCOCC3)c1)OCOC2	-0.77	x
COc1ccccc1C(=O)Nc1ccccn1	0.36	-0.65
CN1N=C(C(=O)Nc2nc(-c3ccccc3Cl)cs2)CCC1=O	x	-0.55
CCC(C)N=Cc1c(O)n(-c2ccccc2)c(=O)[nH]c1=O (centres undefined)	0.53	-0.65
O=C(NN1C(=O)CCC1=O)C(O)c1ccccc1 (centres undefined)	-0.035	-0.8
O=C(Nc1ccccc1NC(=O)c1cccs1)c1ccc(C(F)(F)F)cc1	-0.29	-1.2
NNC(=O)CCc1nc2ccccc2[nH]1	x	-0.7
CCC1(Cc2ccccc2)NC(=O)c2ccccc2O1 (centres undefined)	0.01	1.1
Cc1c(NC(=O)CN2C(=O)c3ccccc3C2=O)c(=O)n(-c2ccccc2)n1C	x	-0.6
CC(C)NC(=O)c1ccc(F)cc1	-0.025	-0.45
COc1ccc2[nH]cc(CCNC(=O)OCCCCCc3ccccc3)c2c1	-1.5	x
COc1cccc(C#N)c1	x	0.65
NC(=O)Cn1c(=O)sc2ccccc21	0.56	-0.5
c1ccc(-c2cn3c(n2)SCC3)cc1	i	1.1
COC(=O)c1ccc(CSC2=NCCS2)cc1	x	-0.85
CS(=O)(=O)c1ccc(C2=C(c3ccccc3)C(=O)OC2)cc1	x	-0.2
COc1ccc(C2=N/C(=C/c3c(OC)ccc4ccccc34)C(=O)O2)cc1Br	0.84	x
COc1ccc(NC(=S)NCCn2cc(Br)cn2)cc1OC	-0.04	0.2
Clc1ccc(Sc2c(Cl)cncc2Cl)cc1	0.15	x
COc1ccc(OC)c(-n2c(=S)[nH]c3c(sc(=S)n3-c3ccccc3C)c2=O)c1	-1.5	x
NCC[C@@H](O)C(=O)N[C@@H]1C[C@H](N)[C@@H](O[C@H]2O[C@H](CN)[C@@H](O)[C@H](O)[C@H]2O)[C@H](O)[C@H]1O[C@H]1O[C@H](CO)[C@@H](O)[C@H](N)C1O (some centres undefined)	-0.27	0.8
COc1ccccc1C(=O)COC(=O)CSc1nnc(-c2ccco2)n1Cc1ccccc1	x	-0.25
COc1cc(OC)nc(CSCCNC(=O)C(c2ccccc2)c2ccccc2)n1	-0.33	x
CN(C)C(CNC(=O)c1cccs1)c1cccnc1 (centres undefined)	-0.3	-0.75
Cc1cc2ccccc2c(=O)n1CC(=O)NCC(=O)NCC1COc2ccccc2O1 (centres undefined)	0.055	x
Cc1cc2oc(=O)c3c(c2c(O)c1CN(C)C)CCCC3	-0.61	-0.85
CCOC(=O)c1ccc(-n2c(=S)sc3c(=O)n(-c4ccccc4)c(=S)[nH]c32)cc1	-0.96	x
COc1ccc(N2C(=O)CCC(C(=O)NC(C)C)C2c2ccc(OC)c(OC)c2)cc1 (centres undefined)	-0.02	0.05
CCNS(=O)(=O)c1cc(C)ccc1-n1cnnn1	-0.14	-0.45
O=c1[nH]c(-c2ccccc2)nc2ccsc12	0.095	-0.95

A second format for some results above.
SMILES | CapD inh | AID504770
COc1cccc(C#N)c1 | x | 0.65
NC(=O)Cn1c(=O)sc2ccccc21 | 0.56 | -0.5
c1ccc(-c2cn3c(n2)SCC3)cc1 | i | 1.1
COC(=O)c1ccc(CSC2=NCCS2)cc1 | x | -0.85
CS(=O)(=O)c1ccc(C2=C(c3ccccc3)C(=O)OC2)cc1 | x | -0.2
COc1ccc(C2=N/C(=C/c3c(OC)ccc4ccccc34)C(=O)O2)cc1Br | 0.84 | x
COc1ccc(NC(=S)NCCn2cc(Br)cn2)cc1OC | -0.04 | 0.2
Clc1ccc(Sc2c(Cl)cncc2Cl)cc1 | 0.15 | x
COc1ccc(OC)c(-n2c(=S)[nH]c3c(sc(=S)n3-c3ccccc3C)c2=O)c1 | -1.5 | x
NCC[C@@H](O)C(=O)N[C@@H]1C[C@H](N)[C@@H](O[C@H]2O[C@H](CN)[C@@H](O)[C@H](O)[C@H]2O)[C@H](O)[C@H]1O[C@H]1O[C@H](CO)[C@@H](O)[C@H](N)C1O (some centres undefined) | -0.27 | 0.8
COc1ccccc1C(=O)COC(=O)CSc1nnc(-c2ccco2)n1Cc1ccccc1 | x | -0.25
COc1cc(OC)nc(CSCCNC(=O)C(c2ccccc2)c2ccccc2)n1 | -0.33 | x
CN(C)C(CNC(=O)c1cccs1)c1cccnc1 (centres undefined) | -0.3 | -0.75
Cc1cc2ccccc2c(=O)n1CC(=O)NCC(=O)NCC1COc2ccccc2O1 (centres undefined) | 0.055 | x
Cc1cc2oc(=O)c3c(c2c(O)c1CN(C)C)CCCC3 | -0.61 | -0.85
CCOC(=O)c1ccc(-n2c(=S)sc3c(=O)n(-c4ccccc4)c(=S)[nH]c32)cc1 | -0.96 | x

Next records follow.
SMILES	CapD inh	AID504770
O=C(NCCN1CCN(c2cccc(Cl)c2)CC1)c1nnc(-c2ccc(CN3CCc4ccccc4C3)cc2)o1	-0.62	1
O=C(NCc1ccco1)c1ccc2c(c1)NC(=O)C1CCCN21 (centres undefined)	-0.36	0.1
Cc1nnc(SCCCC(=O)c2ccc(C(C)(C)C)cc2)s1	7	-0.3
CC(C)(C)N1COc2ccc3c4c(c(=O)oc3c2C1)CCCC4	74	0.75
Cc1ccc(-c2cn3cccnc3n2)cc1	88	0.05
COc1cc(C2CC(=O)NC(SCC(=O)Nc3ccc(Br)cc3)=C2C#N)ccc1O (centres undefined)	0.6	x
CC(C)CN(C(=O)c1cccnc1)c1nnc(Cn2nnc3ccccc32)s1	x	-0.2
CCOC(=O)C1=C(C)N=c2s/c(=C\c3c[nH]c4ccccc34)c(=O)n2C1c1ccc(OC)c(OC)c1 (centres undefined)	-0.11	x
CCOC(=O)c1ccc(NC(=S)N(Cc2ccccc2)C(C)C)cc1	0.21	x
CCN(CC)CCN=Cc1c(O)[nH]c(=O)[nH]c1=O	0.42	2.3
CCN(CC)/C(=N/S(=O)(=O)c1ccc(Cl)cc1)c1ccccc1	0.015	-0.65
c1coc(-c2nc3ccccc3s2)c1	x	0.05
O=C(O)CCCC(=O)N1CCC(N2C(=O)Cc3ccccc32)CC1	-0.91	x
COc1ccc(-c2cc(C(=O)O)c3ccc(C)cc3n2)cc1	80	x
O=C(O)C(C(=O)O)C12OC3C4C5CC(C6C5C3C61)C42 (centres undefined)	x	-0.95
CN1C(=O)S/C(=C\C(=O)O)C1=O	x	-1.4
O=C(Nc1cccc(Br)c1)c1ccc(OC2CSC2)cc1	0.41	0.15
O=c1c(-c2ccccc2)c(O)c2cccc3c4c(n1c23)CCCC4	4.7	x
C=CCc1c(C)nc(OCC(=O)OCC)c(C#N)c1C	1.3	1.1
CC(c1ccc(S(N)(=O)=O)cc1)N(C)c1ncnc2sccc12 (centres undefined)	x	0.05
Cc1cc(=O)oc2cc(OCC(=O)OC(C)C(=O)Nc3ccc(S(N)(=O)=O)cc3)ccc12 (centres undefined)	x	-0.1
CCS(=O)(=O)CCSc1nc(-c2ccccc2)cc(-c2ccccc2)c1C#N	-1.1	0.15
O=C(O)c1oc2ccccc2c1CSc1ccccn1	0.055	-0.1
CCN(CC)c1nc(-c2ccncc2)nc(-c2ccc(Cl)cc2)c1C#N	0.23	x
CCOc1ccc(NC(=O)CN(C)c2nnnn2-c2ccccc2)cc1OCC	x	-0.6
CCc1cc2c(NCCCN3CCOCC3)nc(C)nc2s1	x	-0.2
Cc1ccc(N2N=C(c3ccccc3)CC2c2ccc3c(c2)OCO3)cc1 (centres undefined)	6.8	x
COCc1cc(CN2CCN(c3ccccc3OC)CC2)c(O)c2ncccc12	-1.2	-0.45
COc1cc(C=NCCN=Cc2cc(OC)c(OC)c(OC)c2)cc(OC)c1OC	0.21	x
Cc1n[nH]c(=O)c2c(NC(=O)COC(=O)C3(c4ccc(Cl)cc4)CCC3)oc(C)c12	x	-0.6
CNC(=O)c1sc2nc(-c3ccccc3)cn2c1C	0.36	-1.1

Compound activity from PubChem.
